Vaccinia Venus: vaccinia inhibition (Venus reporter) | Vaccinia virus Venus reporter expression, fluorescence | Potency, µM (series often up to 36.5 µM), for inactives: at the top dose activity change, negative = inhibition, usual class: inhibitors | 0.46% of 330,000 active; active means well fitted inhibition curve with a large enough effect; inconclusive means small, poorly fitted or top-dose-only effect; inactive means no such curve, though single readings can be large or run the other way; tested in A549 cells; further: nearly all actives have a fitted effect of over 30% in size; inactives centre near -10
VACV mCherry inh: inhibitors of vaccinia virus infection (mCherry reporter signal); Vaccinia virus mCherry reporter infection, fluorescence; about a quarter of the inactives have no number; Potency, µM (series often up to 36.5 µM), without a hit: top-dose activity change, negative = inhibition, actives largely listed as inhibitors; 0.63% of 310,000 active; active = well fitted inhibition curve with a large enough effect; inconclusive = small, poorly fitted or top-dose-only effect; inactive = no such curve, though single readings can be large or run the other way; tested in A549 cells; further: nearly all actives have a fitted effect of over 35% in size; inactives centre near -10
Numbers without * were called inactive; i = inactive; ? = inconclusive; . = not tested or not shown; & = joins results of further samples; [ ] = remark or other dose. On the % scale 0 is the no-effect control and ±100 the full control effect; potency means the concentration at half of the fitted maximal effect.

Preview:
SMILES | Vaccinia Venus | VACV mCherry inh
CSc1cccc(NC(=O)CN2CCN(Cc3ccccc3C)S2(=O)=O)c1 | -10% | -1%
COC(=O)CCC(=O)OC1(C)C(=O)C2=COC(c3ccc(OC)cc3)=CC2=C(Br)C1=O (configuration not stated) | -17% | i

The whole of this part, previewed entries included:
SMILES | Vaccinia Venus | VACV mCherry inh
CSc1cccc(NC(=O)CN2CCN(Cc3ccccc3C)S2(=O)=O)c1 | -10% | -1%
COC(=O)CCC(=O)OC1(C)C(=O)C2=COC(c3ccc(OC)cc3)=CC2=C(Br)C1=O (configuration not stated) | -17% | i
COc1ccc(/C=N/NC(=O)c2c(C)nc3ccc(Br)cn23)cc1OC | ? | -26%[7.34 µM]
N/C(=N/O)c1nc(N2CCCCC2)nc(N2CCCCC2)n1 | -21% | -14%
Cc1ccc(C2=N/C(=C\c3cccnc3)C(=O)O2)cc1 | 6% | -1%
COC(=O)N/N=C/c1cc(Cl)c(OCc2ccc(F)cc2)c(OC)c1 | -18% | i
CCC(CC)c1nnc(NC(=O)CCCN2C(=O)c3ccccc3C2=O)s1 | -1% | -10%
COC(=O)CCNC(=O)c1nn(Cc2ccccc2)c(=O)c2ccccc12 | 8% | 7%
CC(=O)c1ccc(OCc2nnn(CC(=O)NS(=O)(=O)c3ccc(C)cc3)c2-c2ccccc2)cc1 | 7% | -5%
O=Cc1cnc(N2CCOCC2)nc1 | 4% | -10%
COc1ccc(NC(=O)CSc2nc(-c3ccccc3)[nH]c2-c2ccccc2)cc1OC | -20% | -17%
O=C(CSc1nnc2ccccn12)Nc1cccc(-c2nc3ccccc3s2)c1 | -5% | -10%
NC(N)=N/N=C(\N=Nc1ccccc1)c1cccc2cccnc12 | -17% | -27%
O=C1Nc2ccccc2C1(O)Cc1ccccn1 (configuration not stated) | 6% | -19%
COc1ccc2c(c1)Cc1sc(NC(=O)c3cccc(Cl)c3)nc1-2 | ? | ?
CCn1c(=O)n(-c2ccc(C)c(F)c2)c(=O)c2sc3ccccc3c21 | -2% | -5%
CCn1cc([N+](=O)[O-])c(C(=O)N2N=C(c3cccc4ccccc34)CC2c2ccccc2O)n1 (configuration not stated) | ? | ?
CCOc1ccccc1N1CCN(C(=O)c2ccc(NS(=O)(=O)c3ccc4[nH]c(=O)[nH]c4c3)cc2)CC1 | -10% | i
O=C(O)CNC(=S)NCc1ccccc1 | 7% | 1%
COc1ccc2[nH]c(=O)c(CN(C(=O)c3ccco3)C3CCCCC3)cc2c1 | -24% | .
Cc1ccc(N(Cc2ccccc2)C(=O)c2ccc(F)cc2)cc1 | -8% | -8%
C=CCc1cc(/C=C/c2nc(O)c([N+](=O)[O-])c(=O)[nH]2)cc(OC)c1O | -9% | -12%
CCCCCCCCn1c2c(c(=N)c3c1CCC3)CCCC2 | -25% | -17%
COc1ccc(CCN(Cc2ccccn2)C(=S)Nc2ccc(C)cc2)cc1OC | -5% | -13%
CC1=C(C(=O)Nc2ccc(C)cc2)C(c2cccs2)NC(=S)N1 (configuration not stated) | -8% | -18%
CCc1nc(SCC(=O)Nc2ccc(N(C)C)cc2)n[nH]1 | 5% | -5%
Cc1nc(N2CCN(Cc3nc4ccccc4[nH]3)CC2)c2oc3ccccc3c2n1 | -28% | -22%
CC1(C)CC(N2CCN(CCO)CC2)=CC(=S)N1 | -11% | i
COc1ccc([N+](=O)[O-])cc1N(CC(=O)Nc1ccccc1C(=O)NC(C)C)S(C)(=O)=O | -9% | -17%
COc1ccccc1CCNC(=O)c1nc(-c2cccs2)no1 | -19% | -16%

Single entries from the entries so far:
CC1(C)CC(N2CCN(CCO)CC2)=CC(=S)N1 in Vaccinia Venus has -11%
COc1ccccc1CCNC(=O)c1nc(-c2cccs2)no1 in Vaccinia Venus has -19%

(listing goes on)
SMILES | Vaccinia Venus | VACV mCherry inh
CC1=C[C@H]2Cc3cc(C)cc(C)c3S(=O)(=O)[C@@H]2C=C1 | -6% | -26%
Cc1cc(OC(=O)c2ccco2)c2c3c(c(=O)oc2c1)CCCC3 | 12% | i
CCc1ccc[n+](-c2[nH]c(=O)sc2/C=N/NC([S-])=Nc2ccccc2)c1 | 14% | -10%
CCCNC(=O)c1ccccc1NC(=O)Nc1ccccc1C | ? | .
CCOc1ccc(OCCn2nnc3ccccc3c2=O)cc1 | -10% | -8%
Cc1ccccc1NC(=S)NCCSc1ccc(Cl)cc1 | -7% | -10%
COc1ccc(C(=O)C[n+]2cccc(Br)c2)cc1 | -11%&-5% | -10%
CCN(C(=O)CSc1nnc(-c2ccc(Cl)cc2)o1)c1ccccc1 | -4% | 10%
COc1cccc(N2CCN(C(=O)c3cc4c(=O)n(Cc5cccs5)ccc4nc3C)CC2)c1 | -18% | -17%
NC(=O)c1ccccc1NC(=O)C1CCCO1 (configuration not stated) | -1% | i
COc1ccccc1Nc1ncnc2c1oc1ccccc12 | -2% | .
Cc1ccc2nc(-c3ccncc3)cc(C(=O)Nc3ccc4c(c3)OCCO4)c2c1 | ? | ?
CCn1c(C)nc2cc(C(=O)NN=C(C)c3ccc(C#N)cc3)ccc21 | -9% | -10%
CCc1ccc(-n2c(-c3ccccc3)c(C)n3c4c(=O)n(C)c(=O)n(C)c4nc23)cc1 | 4% | 8%
Cc1ccccc1OCCC(=O)OCC(=O)c1c(N)n(CC(C)C)c(=O)n(C)c1=O | -20% | -20%

Seven entries from above, tab-delimited:
molecule	Vaccinia Venus	VACV mCherry inh
COc1ccc([N+](=O)[O-])cc1N(CC(=O)Nc1ccccc1C(=O)NC(C)C)S(C)(=O)=O	-9%	-17%
COc1ccccc1CCNC(=O)c1nc(-c2cccs2)no1	-19%	-16%
CC1=C[C@H]2Cc3cc(C)cc(C)c3S(=O)(=O)[C@@H]2C=C1	-6%	-26%
Cc1cc(OC(=O)c2ccco2)c2c3c(c(=O)oc2c1)CCCC3	12%	i
CCc1ccc[n+](-c2[nH]c(=O)sc2/C=N/NC([S-])=Nc2ccccc2)c1	14%	-10%
CCCNC(=O)c1ccccc1NC(=O)Nc1ccccc1C	?	.
CCOc1ccc(OCCn2nnc3ccccc3c2=O)cc1	-10%	-8%

Next part.
SMILES | Vaccinia Venus | VACV mCherry inh
CCN(C(=O)c1ccnc(C(C)(C)C)c1)c1ccccc1 | -13% | i
CC(C)NC(=O)c1ccc(Cl)cc1Cl | -5% | i
Cc1nnc(NC(=O)CSc2nnc(CC(=O)Nc3ccccc3Cl)n2C)s1 | -3% | 15%
Cc1ccc(C(=O)N/C(=C\c2cccs2)C(=O)NCc2cccnc2)cc1 | -9% | -23%
FC(F)(F)c1cc(-c2cccs2)nc2cc(-c3ccccc3)nn12 | -15% | i
Cc1c(C(=O)NCc2ccc3c(c2)OCO3)sc(=O)n1Cc1ccc(-c2ccccc2)cc1 | 3% | 1%
COc1cc(Nc2nc3c(N)cc(C(F)(F)F)cc3nc2-c2ccccc2)cc(OC)c1OC | -26% | i
COc1cc(C2c3cc4c(cc3C(OC3OC5COC(c6cccs6)OC5C(O)C3O)C3COC(=O)C23)OCO4)cc(OC)c1O (configuration not stated) | ? | ?
O=C(Cn1cnc2ccccc2c1=O)Nc1ccc2c(c1)OCO2 | -9% | -17%
COCCCNC(=O)Nc1ccc2c(c1)N(C)C(=O)CS2 | -14% | -16%
COc1cc(OC)c(NC(=O)Nc2ccc3c(c2)N(C)C(=O)c2ccccc2S3)cc1Cl | ? | -14%
CC1=C(C(=O)Nc2ccccc2)C(c2ccc3c(c2)OCO3)C2=C(CCCC2=O)N1 (configuration not stated) | 0% | -2%
O=C(NC1CCCCCC1)c1nc2ncccn2n1 | -6% | -8%
COc1ccc(-c2cc(C(=O)Nc3c(C)nn(Cc4ccc(C)cc4)c3C)no2)cc1OC | -2% | -11%
COc1ccc(CNC(=O)CSc2ccc(Br)cc2)cc1OC | -2% | -6%
N#Cc1cccc(NC(=O)CNc2cccc(S(=O)(=O)N3CCCC3)c2)c1 | -19% | -25%
CCOCCCNc1ccc(N2C(=O)CCCC2=O)cc1[N+](=O)[O-] | -29% | -1%
O=C(NCC(O)c1nc2ccccc2[nH]1)c1cc2ccccc2[nH]1 (configuration not stated) | -3% | i
C/C(=N/NC(=O)Cc1c(C)[nH][nH]c1=O)c1ccc(O)cc1 | -12% | -8%
COc1ccc(N(Cc2cc3ccccc3[nH]c2=O)S(C)(=O)=O)cc1 | -17% | -1%
CCN(CC)S(=O)(=O)c1ccc(C(=O)Oc2ccc3c(c2)OCO3)cc1 | 4% | 0%
Cc1nn(Cc2ccc(Cl)cc2)c2sc(C(=O)O)cc12 | -8% | -16%
